Source: PubChem (several laboratories)
Rce1 inhib: yeast Rce1p protease inhibitors, primary screen, biochemical, fluorescence, cell-free homogeneous; hit rate 0.27% among 290,000; calls only; CAAX prenyl protease 2 (Saccharomyces cerevisiae (strain ATCC 204508 / S288c)), Q03530; AID 2563, 2010; yeast membranes, quenched prenylated peptide cleavage fluorescence;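 active = fall in fluorescence gain of 50% or more versus controls, with final raw signal at or below 3038400; inconclusive = same 50% fall but final raw signal above 3038400; inactive = fall in fluorescence gain under 50%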;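 note: plate controls were neutral control wells for no effect and wells lacking membranes for full effect; tested at 10 µM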
Target sequence (Q03530 whole entry, looked up): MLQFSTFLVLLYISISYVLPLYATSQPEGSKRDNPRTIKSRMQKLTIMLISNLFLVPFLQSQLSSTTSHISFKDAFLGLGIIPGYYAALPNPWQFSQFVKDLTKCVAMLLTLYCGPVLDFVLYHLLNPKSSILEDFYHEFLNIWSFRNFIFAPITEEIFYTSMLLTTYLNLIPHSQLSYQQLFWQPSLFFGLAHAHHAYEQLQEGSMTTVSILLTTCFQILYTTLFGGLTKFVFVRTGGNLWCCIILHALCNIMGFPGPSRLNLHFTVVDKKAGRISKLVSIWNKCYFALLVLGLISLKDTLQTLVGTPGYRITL
Yeast UUG start: modulators of yeast start codon fidelity, primary screen, whole organism, S. cerevisiae, single point, plate reader. hit rate 0.13% among 350,000. S. cerevisiae UUG-firefly luciferase reporter, luminescence/redox ratio. activity score, % at 18.7 µM;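 active = replicate mean at a twofold rise or more, about +100% in these data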;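 note: firefly luciferase made from a UUG start codon reports start codon fidelity; reporter light over untreated wells divided by growth signal over untreated wells; some hits fall short of that in this replicate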
PABP polyA inh: PABP poly(A) RNA binding inhibitors, primary screen, biochemical, fluorescence polarization, uHTS | hit rate 1% among 290,000 | Polyadenylate-binding protein 1 (Homo sapiens), P11940 | inhibition, % at 35 µM;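 active = 50% or more with normal probe brightness, or confirmed in later tests; inconclusive = above 50% with abnormal brightness, or retests that disagree; inactive = below 50% or failed in later tests; about a fifth of its hits are not listed in these tables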;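 note: calls also rest on retests at 20 µM and on dose response follow-up; controls were probe without protein and protein plus probe with vehicle; some compounds called inactive have numbers as strong as hits; many hits fall short of the cut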
Target sequence (P11940 whole entry, looked up): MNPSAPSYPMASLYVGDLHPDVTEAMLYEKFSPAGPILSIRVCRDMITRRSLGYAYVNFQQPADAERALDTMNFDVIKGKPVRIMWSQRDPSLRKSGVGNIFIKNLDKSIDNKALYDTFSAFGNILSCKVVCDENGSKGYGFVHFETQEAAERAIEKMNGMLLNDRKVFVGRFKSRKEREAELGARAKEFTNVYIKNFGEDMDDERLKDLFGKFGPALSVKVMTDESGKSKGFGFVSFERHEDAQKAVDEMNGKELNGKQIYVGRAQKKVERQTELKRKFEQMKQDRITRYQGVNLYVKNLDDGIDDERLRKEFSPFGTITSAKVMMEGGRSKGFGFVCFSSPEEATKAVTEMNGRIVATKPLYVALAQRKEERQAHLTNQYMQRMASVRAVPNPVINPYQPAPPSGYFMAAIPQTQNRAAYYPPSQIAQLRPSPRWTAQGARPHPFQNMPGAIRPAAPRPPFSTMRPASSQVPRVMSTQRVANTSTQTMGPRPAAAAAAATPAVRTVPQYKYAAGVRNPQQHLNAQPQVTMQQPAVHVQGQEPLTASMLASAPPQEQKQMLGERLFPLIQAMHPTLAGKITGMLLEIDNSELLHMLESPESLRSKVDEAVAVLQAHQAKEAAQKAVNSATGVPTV
CSC inhib: cancer stem cell viability inhibitors, primary screen, luminescence; cancer stem cell-like cells viability; inhibition, % at 7.5 µM; hit rate 1.1% among 300,000; AID 2717, 2010;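 active = mean at 75% or more and at least half the replicates too; inconclusive = mean and replicates disagree; tested in HMLE shEcad cells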;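 note: 0% = median of negative and 100% = median of positive control wells; the first replicate is given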
eIF4H inh: human eIF4H binding inhibitors, primary screen, translation initiation inhibitor project, biochemical, uHTS, fluorescence polarization; eIF4H fluorescence polarization binding assay; inhibition, % at 35 µM; hit rate 0.94% among 290,000; Eukaryotic translation initiation factor 4H (Homo sapiens), Q15056;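 active = 50% or more with normal probe brightness, or confirmed in later tests; inconclusive = above 50% with abnormal brightness, or retests that disagree; inactive = below 50% or failed in later tests; about a fifth of its hits are not listed in these tables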;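 note: calls also rest on retests at 20 µM and on dose response follow-up; 0% = protein and probe with vehicle and 100% = probe without protein; strong numbers were not always called active; many hits fall short of the cut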
MT1-MMP act inh: blockers of MT1-MMP proenzyme processing, primary screen, HT1080 RFP-PRO-GFP cells, GFP/RFP fluorescence; hit rate 0.061% among 360,000; AID 651647, 2012; GFP/RFP ratio change, % at 20 µM; GFP/RFP ratio fluorescence, overnight; percent of plate control window, DMSO zero;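 active = GFP/RFP ratio change of at least 30% with cell ATP level not reduced by more than half and red fluorescence within 50% of control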; note: strong numbers were not always called active
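Assay system: HT1080 RFP-PRO-GFP cells. Benchmarks: DMSO vehicle wells and RFP-L50D-GFP reporter cell wells. Times: overnight cell settling, then overnight compound exposure, 37 °C, 5% CO2. Compound: 20 µM single dose, 1% DMSO. Read-out basis: GFP/RFP fluorescence ratio.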
HIV Env fusion: inhibitors of HIV-1 Env-driven cell-cell fusion, primary screen, HeLa-JRFL effector, CEM21 target cells, luciferase. inhibition, % at 12.3 µM. hit rate 1.1% among 360,000. AID 651610, 2012;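 active = mean replicate inhibition score of at least 50 and every replicate individually at or above 50; inconclusive = only one of the two criteria met; inactive = mean below 50 and not all replicates reaching 50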;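 note: 0% = plate neutral controls and 100% = maraviroc near 300 nM; one replicate is shown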
MT1-MMP act inh RFP: also measured in MT1-MMP act inh; calls as there; RFP signal change, %; measured here: RFP expression control read;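 0 = vehicle wells; hits needed this value within 50% of zero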
* marks the source's active call; other numbers are inactive results; i = inactive; ? = inconclusive; . = no result given.

SMILES	Rce1 inhib	Yeast UUG start	PABP polyA inh	CSC inhib	eIF4H inh	MT1-MMP act inh	MT1-MMP act inh RFP	HIV Env fusion
COc1ccc(N2CCN(C(=O)NC3CC(=O)N(c4ccc(OC)cc4)C3)CC2)cc1 (stereo unspecified)	i	-9	0	-3	-2	2	-2	1
CC(C)N(C)S(=O)(=O)c1ccc(Cl)c(C(=O)O)c1	i	-16	-4	3	0	0	2	-17
Cc1ccc(CNC(=O)/C=C/c2ccc(S(=O)(=O)N3CCOCC3)cc2)cc1	i	.	-5	-10	0	2	5	5
Cc1cccc(/C=N/Nc2ccc3ccccc3n2)c1	i	.	7	4	25	0	-2	-14
Cc1cccc(NC(=O)CCCn2c(=S)[nH]c3ccccc3c2=O)c1	i	-18	-3	-3	2	2	-4	1
O=C(CN(c1cccc([N+](=O)[O-])c1)S(=O)(=O)c1ccccc1)NCc1cccnc1	i	-12	-1	-5	-5	0	-1	-11
CCCc1nn2c(=O)cc(CSCC(=O)Nc3cccc(C)c3)nc2s1	i	1	.	-9	.	1	4	2
CCSc1nnc(NC(=O)[C@@H](NC(=O)c2ccccc2)C(C)C)s1	i	.	-5	-6	0	-3	-3	18
COC(CNC(=O)c1ccc(CS(=O)(=O)c2ccccc2)o1)OC	i	-23	6	-4	21	-4	3	-3
CC(OC(=O)c1cc(S(=O)(=O)N(C)c2ccccc2)ccc1Cl)C(=O)Nc1ccc2c(c1)OCCO2 (stereo unspecified)	i	-9	-5	4	-3	-2	-3	47
C/C(=N\NC(=O)c1cc(C(C)(C)C)[nH]n1)C12CC3CC(CC(C3)C1)C2	i	-31	2	.	6	4	-1	-2
COc1ccc([N+](=O)[O-])cc1N(CC(=O)NC1CCCCC1)S(C)(=O)=O	i	-7	2	3	13	0	-1	1
O=C(NCc1ccccc1)c1cccc2c(-c3cccnc3)coc12	.	-11	.	.	.	2	-8	14
CCOc1cc(/C=N/Nc2cccc(C(=O)O)c2)ccc1OCC(=O)N1CCCCC1	.	.	-1	.	5	-1	2	-4
O=C(COC(=O)c1cccs1)NC1CCCCC1	i	-11	-4	-3	-10	3	4	-49
COc1ccc2nc(NC(=O)C3CCCN(S(=O)(=O)c4cccc5nsnc45)C3)sc2c1 (stereo unspecified)	i	-1	10	-11	-2	-13	-8	.
CCc1cc2c(SCC(=O)c3ccc(Cl)s3)ncnc2s1	i	-40	-12	23	-5	-3	0	.
Cc1cc(NC(=O)C2CC2)ncc1NC(=O)c1ccccn1	i	.	8	8	13	3	9	-27
COc1ccc(CCN=CC2=C(O)CCCC2=O)cc1OC	i	-12	-5	2	-5	-4	3	.
COc1ccc(N2CCN(c3ccc(N4C(=O)CC(C)C4=O)cc3[N+](=O)[O-])CC2)cc1 (stereo unspecified)	i	-6	0	0	39	4	-11	-17
O=C(COC(=O)c1ccc(O)cc1O)N=c1sccn1Cc1ccccc1Cl	i	13	.	14	.	-10	-14	23
Cc1ccc(-n2c(C)cc3c2CC(C)(C)CC3=O)cc1C	i	-15	-1	-7	-5	0	0	10
Cc1cccc(C(=O)N[C@H](C(=O)OCC(=O)NC(=O)c2cccn2C)C(C)C)c1	i	.	-8	4	1	-3	5	4
C=CCn1c(SCC(=O)Nc2nnc(C)s2)nnc1-c1cccnc1	i	.	36	-7	-6	2	1	-7
CC(NC(=O)C(Cc1ccccc1)N1C(=O)C2C3CCC(C3)C2C1=O)c1ccccc1 (stereo unspecified)	i	-1	7	-9	6	-2	2	-21
COc1ccc(NC(=O)CN2C(=O)C(C)SC(C)C2=O)cc1 (stereo unspecified)	i	.	0	0	-9	0	3	-1
C/C(CC(=O)Nc1ccc([N+](=O)[O-])cc1)=N/NC(=O)C1CC12CCC2 (stereo unspecified)	i	8	3	15	-1	1	1	7
Cc1ccccc1Cn1c(=O)n(C)c(=O)c2sccc21	i	-18	0	-11	-4	3	-2	14
Cc1ccc(NC(=O)Cc2ccc(-n3cccc3)cc2)c(C)c1	i	0	-6	-3	-9	0	2	.
Cc1cccc(NC(=O)CSc2nsc(SCC(=O)Nc3cccc(C)c3)c2C#N)c1	i	.	1	-14	-12	2	2	7
COc1ccc(N(C(=O)CNC(=O)c2ccco2)C(C(=O)NC2CCCC2)c2ccco2)cc1 (stereo unspecified)	i	2	8	-7	-8	0	-1	-1
Cc1noc(C)c1COC(=O)c1ccc2c(c1)S(=O)(=O)c1ccccc1C2=O	i	-17	10	-12	-3	-30	2	-25
Cc1ccc(N(C(=O)c2snc(C(N)=O)c2N)C(CC(C)C)C(=O)NC2CCCC2)cc1 (stereo unspecified)	i	8	-1	19	2	-8	-7	9
CNc1cc(=O)n(C)c(=O)n1-c1ccccc1	i	.	.	6	.	-3	0	1
COc1ccc(-c2csc(N(CCCN(C)C)C(=O)c3ccc(C(C)(C)C)cc3)n2)cc1	i	0	-10	26	-7	-3	-10	21
COc1ccc(Oc2ccc(/C=C/C(=O)c3ccc(O)cc3)cc2[N+](=O)[O-])cc1	i	.	-2	94*	-7	-12	-28	-70
CCOc1ccccc1C(=O)OCC(=O)Nc1ncc(C(F)(F)F)cc1Cl	i	55	2	0	6	-2	2	-20
COc1ccc(-c2n[nH]c3c2C(c2ccc(OC)c(OC)c2)N(c2ccccc2)C3=O)cc1 (stereo unspecified)	i	-3	13	.	-5	4	-2	-41
Cc1c(NC(=O)/C(C#N)=C/C2CC=CCC2)c(=O)n(-c2ccccc2)n1C (stereo unspecified)	i	9	2	7	-1	3	0	-29
CCC(C)(C)n1nnnc1C(c1ccc(F)cc1)N1CCN(C(=O)c2ccco2)CC1 (stereo unspecified)	i	-16	4	-5	-13	-7	0	-5
O=C(OC(c1ccc(NS(=O)(=O)c2ccccc2)cc1)(C(F)(F)F)C(F)(F)F)c1ccccc1	i	.	-1	67	-6	0	-11	.
NS(=O)(=O)c1ccc(NC(=S)NC2CCCC2)cc1	i	2	12	-6	-7	1	0	.
O=C(c1ccccc1)N1CC(COc2ccccc2)OC(c2ccco2)O1 (stereo unspecified)	i	2	10	-12	5	-1	3	.
N#Cc1cn(Cc2ccco2)c(=O)[nH]c1=O	.	-11	.	.	.	9	5	-2
O=c1[nH]cnc2ccc([N+](=O)[O-])cc12	i	-17	4	-5	-2	1	-5	-11
CCOC(=O)c1cnn(-c2ccccc2)c1-c1ccccc1	i	-14	14	29	2	-6	-4	.
Cn1cc(CCNC(=O)CC2C(=O)NCCN2CC(c2ccccc2)c2ccccc2)cn1 (stereo unspecified)	i	-10	6	-8	9	3	3	16
S=c1[nH]nc(-c2ccco2)n1/N=C/c1c(Cl)cccc1Cl	i	.	5	-11	2	2	4	-5
COc1ccc(S(=O)(=O)N2CCC(C(=O)N(CC(C)C)C3CCS(=O)(=O)C3)CC2)cc1OC (stereo unspecified)	i	33	.	-5	.	1	1	.
Cc1cc(Cl)ccc1NNC(N)=S	i	-13	-4	-9	-4	2	1	12
CCOc1ccc(-n2c(O)c(/C=N/c3ccnn3Cc3ccncc3)c3ccccc3c2=O)cc1	i	.	5	24	30	-6	1	-25
CCN(CCNC(=O)C1CCN(Cc2nc(-c3cccc(Cl)c3)oc2C)CC1)c1ccccc1	i	3	2	22	2	-2	-12	55*
O=C(C1CCC1)N1CCN(c2ccccc2)CC1	i	-3	16	-5	5	-4	-3	2
Cn1c(=O)c2c(nc(N3CCN(Cc4ccccc4)CC3)n2CC(=O)c2ccccc2)n(C)c1=O	i	-7	.	-8	.	0	-3	?
COc1ccc(-c2csc3ncnc(N4CCN(c5ccccc5)CC4)c23)cc1	i	-17	12	-3	7	-5	-6	32
COc1ccc(-c2noc(-c3ccccc3C(=O)NCc3ccco3)n2)cc1OC	i	-4	-2	-4	1	8	-1	-10
COc1ccc(/C=C2\SC(=O)N(CC(=O)Nc3cccc(C)c3)C2=O)cc1O	i	-8	7	23	11	-1	-8	-8
COc1ccc(C(CC(=O)O)NC(=O)c2sc3ccccc3c2Cl)cc1 (stereo unspecified)	i	.	2	-13	-4	-1	-3	11
CCC(Oc1ccccc1C)C(=O)Nc1ccc(S(=O)(=O)Nc2cc(C)on2)cc1 (stereo unspecified)	i	2	5	-3	-3	5	8	-5
O=C(Cn1c(=S)[nH]c2ccccc2c1=O)N1CCN(c2ccc(F)cc2)CC1	i	-8	4	-7	-4	3	-1	3

Remaining list, next part:
SMILES	Rce1 inhib	Yeast UUG start	PABP polyA inh	CSC inhib	eIF4H inh	MT1-MMP act inh	MT1-MMP act inh RFP	HIV Env fusion
CC1(C)CC(=O)C=C(c2ccc(COC(=O)c3ccccc3)cc2)C1=O	.	-7	.	.	.	-3	-4	-26
CC(C)C(=O)Nc1ccc(Sc2ccc(F)cc2)cc1	i	1	-2	5	1	2	-4	-15
Cn1c(=O)c2c(SCC(=O)N3CCOCC3)nc(-c3ccccc3Cl)nc2n(C)c1=O	i	-7	3	4	16	-4	-2	-76
COC(=O)c1ccc(N(C(=O)CNC(=O)c2ccco2)C(C(=O)NC2CCCC2)c2ccco2)cc1 (stereo unspecified)	i	3	-8	11	-5	4	-1	-22
COc1ccccc1-n1nnnc1SCC(=O)NC1CC1	i	-1	.	-18	.	0	2	.
CCC(=O)c1ccc(OCC(=O)OCC(=O)Nc2c(C)n(C)n(-c3ccccc3)c2=O)cc1	i	4	.	7	.	1	-1	.
COCCN1C(=O)c2oc3c(C)cc(C)cc3c(=O)c2C1c1cccc(O)c1 (stereo unspecified)	i	4	1	-7	3	-1	4	10
CCOc1cc(/C=C2/N=C(C)C(C(=O)OC)=C2O)ccc1O	i	.	5	-13	9	-5	2	-6
Clc1ccc(-c2nc(NCCN3CCOCC3)c3ccccc3n2)cc1	i	-14	5	-5	1	-3	-5	32
Cc1cc(C(=O)Nc2ccc(Nc3ccccc3)cc2)ccc1[N+](=O)[O-]	i	-6	-4	49	9	9	-1	-25
CCOC(=O)c1sc(=S)n(-c2ccc(OC)cc2)c1N	i	-5	4	-9	-1	0	-1	10
Cc1ccc(NC(=O)CN2C(=O)CCSc3ccc(S(=O)(=O)N4CCCC4)cc32)cc1	i	-12	1	-6	-12	-4	0	-4
COC(=O)CN1C(=O)C2(C(C#N)=C(N)Oc3ccccc32)C2=C1CC(C)(C)CC2=O (stereo unspecified)	i	-6	2	-11	-8	-1	2	-5
O=C(NCC(=O)N1CCN(S(=O)(=O)c2ccccc2F)CC1)c1ccc(Br)o1	i	-5	-5	.	-8	-2	1	18
CC1CCN(C(=O)CSc2nnc(Cc3cccn3C)n2-c2ccc(F)cc2)CC1	i	-11	-15	-6	-7	-3	0	7
Cc1nnc(SCC(=O)NC2CCC(C)CC2)s1 (stereo unspecified)	i	-15	.	-7	.	4	3	.
Cc1cc(C)c2c3c(sc2n1)C(=O)N(c1ccccc1C)CC(=O)N3	i	.	3	.	0	0	-3	-11
O=C(O)c1cc(N/N=C/c2cccs2)ccc1Cl	i	.	27	.	17	.	.	.
Cc1ccccc1CNC(=O)C1CCC(=O)N(C2CCCCCC2)C1 (stereo unspecified)	i	15	-10	-4	-2	2	-3	-59
O=C(Nc1cccc(Cl)c1)c1ccccc1	.	-5	.	8	.	-1	-3	-32
